Source: PubChem
Tgondii IFNg: T. gondii growth inhibition under IFN-gamma | Toxoplasma gondii growth in IFN-gamma-treated host cells; active compounds read low; reference of the scale not given here | activity change, negative = inhibition, %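 (about 20 µM by stock and volumes)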 | 69,000 tested, 3.8% active;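 active = below -70%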;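 also: host cells are HeLa cells infected with Toxoplasma gondii; parasite growth read as luciferase light; one replicate is shown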
* = called active by the depositor; i = inactive; & = joins results of further samples. Not all compounds are listed; the hit share may differ from the screen's.

Preview, 5 compounds:
SMILES	Tgondii IFNg
COC(=O)[C@@H]1C[C@@H](N(C)C)CN1S(=O)(=O)c1c(C)noc1C	0
COc1ccc(NC(=O)c2nc(Nc3ccc(C)cc3)c3ccccc3n2)cc1Cl	-2
Cc1cccc(C)c1NC(=O)c1ccc(N)cc1	10
O=C(NCc1cccs1)c1c(F)cccc1NC(=O)C(c1ccccc1)C1CCCC1 (stereo not given)	-12
C[C@@H]1CC=CC[C@@H](c2ccc3c(c2)OCO3)NC(=O)[C@H](C)N(C)C(=O)c2ccccc2O1 (mixture of isomers)	10

Main list, previewed entries included:
SMILES	Tgondii IFNg
COC(=O)[C@@H]1C[C@@H](N(C)C)CN1S(=O)(=O)c1c(C)noc1C	0
COc1ccc(NC(=O)c2nc(Nc3ccc(C)cc3)c3ccccc3n2)cc1Cl	-2
Cc1cccc(C)c1NC(=O)c1ccc(N)cc1	10
O=C(NCc1cccs1)c1c(F)cccc1NC(=O)C(c1ccccc1)C1CCCC1 (stereo not given)	-12
C[C@@H]1CC=CC[C@@H](c2ccc3c(c2)OCO3)NC(=O)[C@H](C)N(C)C(=O)c2ccccc2O1 (mixture of isomers)	10
CO[C@H]1CN(Cc2cccc(C#N)c2)[C@H]2COC[C@@H]12	74
CC(C)Nc1nc2c(c(NC3CC3)n1)CCN(CC1CCOC1)CC2 (stereo not given)	-15
COC(=O)c1[nH]ncc1CN1CCN(Cc2cc(C)cc(C)c2)C(=O)C1	1
O=C(C(=O)N1CCC(c2cc(Cc3ccccc3)[nH]n2)CC1)N1CCCC1	-8
C=C1/C(=C\C=C2\CCC[C@]3(C)[C@@H]([C@H](C)CCCC(C)C)CC[C@@H]23)C[C@@H](O)C[C@@H]1O	-63
COc1ccc(Cl)cc1N(C(=O)c1ccc(C)cc1)C1(C(=O)NCc2ccccc2)CCN(C(C)=O)CC1	-12
O=C(C[C@H]1CC[C@H]2[C@@H](COC[C@H](O)CN2C(=O)Nc2cccc(F)c2)O1)NCCCN1CCOCC1	-61
COc1cccc(CCc2ccccc2OCC[C@@H]2C[C@@H](O)CN2C)c1	-62&-21
COc1ccc2c3c([nH]c2c1)[C@@H](CO)NCC31CN(S(=O)(=O)c2cccs2)C1	300
O=C(Cn1ncc2c(N3CCOCC3)ncnc21)NCc1ccccc1Cl	74
COc1ccc(-n2c(=O)n(Cc3nc(-c4cc(C)ccc4C)oc3C)c(=O)c3cccnc32)cc1	3
COc1cccc(CNC(=O)C[C@@H]2CC[C@H]3[C@@H](COc4ccc(NS(=O)(=O)c5ccccc5F)cc4C(=O)N3C)O2)c1	-19
O=c1cc(CN2CCCC(CCc3c(F)cccc3F)C2)[nH]c(=O)[nH]1 (stereo not given)	1
Cn1cnc2cc(C(=O)N3CCNCC3C(=O)NC3CC3)cnc21 (stereo not given)	1
CC(C)C(NC(=O)c1ccc(Cn2cncn2)cc1)c1ccc2c(c1)OCCCO2 (stereo not given)	-10
C[C@@H]1C[C@@H]2CN(C(=O)N3CCCC3)C[C@@H]2O1	-2
CC(=O)NCCc1csc(-c2cccc(F)c2)n1	102
Cc1ccc(-n2cc(CN(C)C(C)c3ccncn3)c(-c3cccc(C)c3)n2)cc1 (stereo not given)	16
Cc1oc(C2CCN(C(=O)Nc3ccc(Cl)cc3F)CC2)nc1C(=O)N(C)C	66
C[C@H]1CN([C@@H](C)CO)C(=O)CCCn2nncc2CO[C@@H]1CN(C)S(=O)(=O)c1ccc2c(c1)OCCCO2	-1

Other records
SMILES	Tgondii IFNg
COCCCNc1c(C(=O)OC)c(=O)[nH]c2c(Cl)cccc12	10
OCCCCn1cnc2cc(Cl)c(Cl)cc21	19
COc1cc(C(=O)OCCCN(C)C)cc(OC)c1OC	0
CC(=O)N(C)C1CCN(C(=O)c2ccc(NCc3sccc3C)cc2)C1 (stereo not given)	-41
COCCNC(=O)C[C@H]1CC[C@H]2[C@H](COc3ccc(NC(=O)Nc4cccc(F)c4)cc3C(=O)N2C)O1	8
O=C(O)c1ccccc1CN1CC[C@@]2(O)CCCC[C@H]2C1	3
CN(C)C(=O)[C@]12CCCN(C(=O)Nc3ccccc3)C[C@@H]1CN(Cc1cnn(C)c1)C2	1
O=C(Cc1ccc(Cl)cc1)Nc1ccc(-c2nc(-c3ccccc3)co2)cc1	6
O=C(c1ccncn1)N1CCN(c2nc(-c3ccccc3)nc3c2CCC3)CC1	-2
CC(C(=O)NCCN1CCCC1)n1c2ccccc2c2cnn(C)c(=O)c21 (stereo not given)	91
Cn1cc(-c2cc(C(=O)Nc3nc4c(s3)CC(C(C)(C)C)CC4)no2)cn1 (stereo not given)	-54
Cn1c(=O)c2c(nc(Oc3ccccc3Br)n2C)n(C)c1=O	-75*
CC(NC(=O)c1cc2ccccc2[nH]1)C(=O)N1CCN(c2ccccn2)CC1 (stereo not given)	31
O=C(CC1CNCCO1)N1CCC(c2cc(-c3ccccc3Cl)n[nH]2)CC1 (stereo not given)	-18
[N-]=[N+]=N[C@]1(CO)O[C@@H](n2ccc(N)nc2=O)[C@@H](O)[C@@H]1O	23
C[C@H](CO)N1C[C@H](C)[C@H](CN(C)Cc2ccc(Cl)c(Cl)c2)Oc2ccc(NC(=O)CCCN(C)C)cc2C1=O	-43
CSc1nc2ccc(NS(=O)(=O)c3ccccc3C(F)(F)F)cc2s1	74
COc1cccc(-n2c(=O)[nH]c3c(C(N)=O)nc(-c4cccc(O)c4)nc32)c1	-9
Cc1cccc(S(=O)(=O)N2C[C@H]3[C@@H](c4ccccc42)[C@H](CO)N3C(=O)c2ccccc2)c1	-7
CCOc1ccccc1C(=O)NCCC(=O)O	-13
COc1cc2c(cc1OC)C(c1ccc(-c3cc(Cl)ccc3Cl)o1)=NCC2	11
C[C@H]1CN([C@@H](C)CO)C(=O)c2ccccc2-c2ccccc2CO[C@@H]1CN(C)C(=O)c1cc(Cl)cc(Cl)c1	-61
COc1cc(NC(=O)c2ccccc2)c(OC)cc1NC(=O)CCn1nnc2ccccc21	-3
CCN1c2ccccc2C(=O)NC12CCN(C(=O)c1cc(OC)c(OC)c(OC)c1)CC2	-11
O=C(O)[C@@H]1CCCN1C(=O)CC12CC3CC(CC(C3)C1)C2	2

Part of the list above in another layout:
Compound,Tgondii IFNg
CC(=O)N(C)C1CCN(C(=O)c2ccc(NCc3sccc3C)cc2)C1 (stereo not given),-41
COCCNC(=O)C[C@H]1CC[C@H]2[C@H](COc3ccc(NC(=O)Nc4cccc(F)c4)cc3C(=O)N2C)O1,8
O=C(O)c1ccccc1CN1CC[C@@]2(O)CCCC[C@H]2C1,3

Additional compounds
SMILES	Tgondii IFNg
CC(C)C(=O)N1CCc2cc(C(O)CN3CCN(c4cnccn4)CC3)ccc21 (stereo not given)	-46
Cc1noc(C)c1S(=O)(=O)N(C)C[C@@H]1OCCCC[C@H](C)Oc2ccc(N(C)C)cc2C(=O)N([C@@H](C)CO)C[C@H]1C	i
Cc1cnccc1NCCn1ccnc1C1CCOC1 (stereo not given)	0
O=C(NCC1OCCc2ccccc21)c1cnn2c1CCCC2 (stereo not given)	-4
Cc1ccc(Oc2ncccc2CNc2nc(C(F)(F)F)nc(C)c2C)cn1	-42
Cc1cc(Cl)ccc1OC(C)C(=O)NCc1cccnc1-n1ccnc1 (stereo not given)	-4
CCn1ccc2cc(S(=O)(=O)N3CCC(C(=O)NCc4ccccn4)CC3)ccc21	69
Cc1cc2oc(=O)cc(C)c2cc1NC(=O)C(C)(C)Oc1ccccc1	7
Cc1nnsc1C(=O)NCc1cnn2ccccc12	-3
COc1cccc2ccc(CN3CCC(c4cc(-c5cnn(C)c5)cc(C)n4)CC3)nc12	-5
C[C@H](CO)N1C[C@H](C)[C@H](CN(C)Cc2ccccc2C(=O)O)Oc2cc(-c3ccc(F)cc3)ccc2S1(=O)=O	65
C/C=C/c1ccc([C@@H]2[C@H](CO)N(C(=O)c3cnccn3)C23CN(C(=O)C2CCC2)C3)cc1	100
Cc1nc(C)c(C(=O)Nc2cnn(CC(=O)NCCc3ccccc3F)c2)s1	8
C=CCN1CC[C@@]2(CN(C(=O)c3ccc[nH]3)C[C@H]2c2ccccc2)C1=O	-32
O=C(Nc1ccc2[nH]c(=O)[nH]c2c1)C(F)(F)F	13
O=C(CN1C(=O)CCc2cc(S(=O)(=O)N3CCOCC3)ccc21)NCc1ccc(F)cc1	-2
Clc1cccc(-c2nnc(-c3nc(NCc4ccco4)c4ccccc4n3)o2)c1	-69
COc1ccc(S(=O)(=O)N2CCCC2)cc1OC	-3
O=C(c1cc2ccccc2[nH]1)N1CCN(c2cc(-c3cccnc3)[nH]n2)CC1	101
O=C(O)C1CN(C(=O)Cc2ccc(F)cc2)C1	6
Cc1ccc2[nH]c(CCC(=O)N3CCC4(CCCO4)CC3)nc2c1C	-1
CCn1ccnc1CC1COc2ccccc2O1 (stereo not given)	-18&13
COc1ccc(NC2=Nc3cccc4cccc2c34)cc1	-24
Cc1nc(CNC(=O)CCc2ccccc2O)cs1	3
Fc1ccc(CN(Cc2ccncc2)Cc2ccc(C(F)(F)F)nc2)cc1	43

The list continues:
SMILES	Tgondii IFNg
Cc1cccc(C)c1-c1c(-c2ccccc2)ncn1CC(O)CO (stereo not given)	-6
COc1ccc(NC(=O)c2ccco2)cc1NC(=O)c1cccnc1Cl	3
CCOC(=O)c1nc(-c2ccc(Cl)cc2)no1	25
CCS(=O)(=O)N1CC[C@@]2(C[C@H](N3CCCC3=O)CCO2)C1	29
CC(C)(C)c1csc(CCNC(=O)CN2C(=O)COc3c(Cl)cccc32)n1	2
CC(C)CN1CCC2(C=C(C(=O)N(C)C)c3ccccc32)CC1	-82*
CCc1cc(N2CCN(CC(=O)OC)C(=O)C2)nc(N2CCOCC2)n1	6
Cc1ccsc1CN(Cc1nccn1C)CC(C)O (stereo not given)	26
Cc1oc(-c2ccccc2)nc1Cn1ccn2nc(-c3ccc4c(c3)OCO4)cc2c1=O	-15
C[C@@H]1CN([C@@H](C)CO)C(=O)CCCn2nncc2CO[C@@H]1CN(C)S(=O)(=O)c1ccc2c(c1)OCCCO2	79
COCC(=O)N1CC(=O)N2[C@H](CO)[C@H](c3ccc(C#CC4CC4)cc3)[C@@H]2C1	-42
O=C(CSc1ncnc2sc3c(c12)CCCC3)Nc1nccs1	-22
CC(C)CC(NC(=O)C1CCCN1C(=O)OC(C)(C)C)C(=O)NCC(N)=O (stereo not given)	1
CCCCC(=O)Nc1ccc(NC(=O)c2ccc(C(C)(C)C)cc2)cc1	-35
COc1ccc(CNCCC2(C(C)C)CCOC(C)(C)C2)cc1 (stereo not given)	-37
Cc1cc(Cl)ccc1NC(=O)Cn1ncc2c(N3CCN(c4ccccn4)CC3)ncnc21	64
FC(F)(F)c1ccc(-c2nnc3ccc(N4CCCCC4)nn23)cc1	-109*
C[C@@H]1CN([C@H](C)CO)C(=O)CCCn2nncc2CO[C@@H]1CN(C)CC1CCCCC1	87
Cc1oc(-c2cccc(Oc3ccccc3)c2)nc1CN1CCN(c2ccccc2O)CC1	18
Cn1cnc(S(=O)(=O)N[C@@H]2CC[C@@H](CC(=O)NCC3CCCCC3)O[C@@H]2CO)c1	29
CC(C)c1nc(CN(C)C(=O)CCc2nc(-c3ccccc3F)no2)cs1	42
Cc1cc(NC(=O)CN2CCC(O)(c3ccccc3)CC2)no1	-14
CCN1CCN(C(=O)c2cn[nH]c2C)CC(Cc2ccc(-c3cccs3)cc2)C1=O (stereo not given)	-19
CC(=O)CSc1nnc(-c2ccc(S(=O)(=O)N3CCOCC3)cc2)o1	-3
CCOC(=O)Cn1nc(-c2ccc(F)cc2)cc(Cc2ccccc2)c1=O	-12

Another view of some results above:
> Cn1cnc(S(=O)(=O)N[C@@H]2CC[C@@H](CC(=O)NCC3CCCCC3)O[C@@H]2CO)c1
  Tgondii IFNg: 29
> CCS(=O)(=O)N1CC[C@@]2(C[C@H](N3CCCC3=O)CCO2)C1
  Tgondii IFNg: 29

Random excerpt: four records from the list.
SMILES	Tgondii IFNg
O=C(Cc1ccc(Cl)cc1)Nc1ccc(-c2nc(-c3ccccc3)co2)cc1	6
CCc1cc(N2CCN(CC(=O)OC)C(=O)C2)nc(N2CCOCC2)n1	6
CO[C@H]1CN(Cc2cccc(C#N)c2)[C@H]2COC[C@@H]12	74
C[C@H](CO)N1C[C@H](C)[C@H](CN(C)Cc2ccc(Cl)c(Cl)c2)Oc2ccc(NC(=O)CCCN(C)C)cc2C1=O	-43

(continued)
SMILES	Tgondii IFNg
C=CC(C)(C)c1[nH]c2ccccc2c1C1C(=O)C(=O)C(c2c[nH]c3c(CC=C(C)C)cccc23)C(=O)C1=O (stereo not given)	13
COc1ccc2c(c1)NC1(CCN(C(=O)Cc3ccc(Cl)cc3)CC1)c1cccn1-2	17
c1ccc2c(Cc3c[nH]c4ccccc34)c[nH]c2c1	10&2
CC(C)CC(NC(=O)C(=O)N1CCc2ccccc2C1)c1ncnn1C (stereo not given)	0
O=C(C[C@H]1CC[C@H]2[C@@H](COC[C@@H](O)CN2C(=O)c2cnccn2)O1)NCc1ccc(Cl)cc1	-1
O=C1NC2(CCCCCC2)C(=O)N1CCS(=O)(=O)Oc1ccc(Cl)cc1	-49
COc1ccc(-c2nc(C)c(CCNS(=O)(=O)c3ccc(Cl)s3)s2)cc1OC	i
CCCN(CC)C(=O)c1ccc2nnc(C3CCN(C(=O)NC(C)C)C3)n2c1 (stereo not given)	4
O=C(NCc1ccccc1Cl)NC(=O)c1ccccc1	7
CCn1nc(C(C)C)cc1-c1n[nH]c(Cc2ccccc2)n1	-52
Cn1c(=O)c(-c2nc(-c3cccc(F)c3)no2)c(O)c2ccccc21	44
CC(C)c1n[nH]c2c1CN(C(=O)c1ccc(C#CC(C)(C)O)o1)CC2	-4
CN(CCCc1nccn1C)Cc1cc2n(n1)CCNC2	-4
O=C(Cc1ccc(F)cc1)N1CC(C(=O)N2CCCC2)C2(CCOCC2)C1 (stereo not given)	9
CCOc1ccccc1C(=O)Nc1ccc(-c2nc(Cn3nc(C)cc3C)c(C)o2)cc1	44
Cc1cccc(CN2CCO[C@H]3CN(S(=O)(=O)c4ccc(C#N)cc4)C[C@@H]32)n1	10
O=C(C1=CC2(CCNCC2)c2ccccc21)N1CCCC1	3
c1ccc(-c2cc3c(ccc4nonc43)nn2)cc1	39
CCC(c1ccncc1)n1ccnc1-c1ccc(OC)cc1OC (stereo not given)	-49
CS(=O)(=O)NC1CCN(Cc2cccn2-c2ccc(Cl)cn2)CC1	6
CCn1nc(C(C)C)cc1C(=O)NCC1CCCN(S(C)(=O)=O)C1 (stereo not given)	-8
COc1cc2c(cc1CN1CCCN(c3ccccc3)CC1)OCO2	-2
